OX1R antagonist = antagonists of human orexin 1 receptor; O43613; CHO/OX1R cells, Fluo-8 calcium fluorescence, orexin A; inhibition, % at 5 µM; actives 0.43% (n = 330,000); AID 434989;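 active = inhibition above its plate's threshold, mean inhibition of all tested compounds on the plate plus 3 SD, cut at about 37% in these data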;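 also: 0% = orexin A challenge wells and 100% = SB-334867-A antagonist wells; not every result past the cut was called active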
Target sequence (O43613 whole entry, looked up): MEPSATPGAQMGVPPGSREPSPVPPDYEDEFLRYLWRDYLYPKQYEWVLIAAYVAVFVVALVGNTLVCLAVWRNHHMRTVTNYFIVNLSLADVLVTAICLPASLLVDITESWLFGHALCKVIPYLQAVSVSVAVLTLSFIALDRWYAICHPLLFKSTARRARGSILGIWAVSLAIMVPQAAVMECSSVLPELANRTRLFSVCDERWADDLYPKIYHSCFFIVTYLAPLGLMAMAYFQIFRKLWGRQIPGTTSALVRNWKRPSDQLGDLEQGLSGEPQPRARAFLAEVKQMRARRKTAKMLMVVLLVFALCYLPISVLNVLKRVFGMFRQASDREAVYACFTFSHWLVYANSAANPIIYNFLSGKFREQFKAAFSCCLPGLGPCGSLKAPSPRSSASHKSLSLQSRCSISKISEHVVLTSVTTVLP
Starred values were filed as active, the others as inactive. Only part of the results is shown, and most or all hits are left out here.

SMILES	OX1R antagonist
Cc1ccc(NC(=O)CCCCCN2C(=O)[C@@H]3Cc4ccccc4CN3C2=O)c(C)c1	-54
CCOc1ccccc1OCCCNCc1ccco1	-17
CN(C)CCOc1ccc2c(c1)Sc1ccccc1CC2=O	-17
Cn1c(COc2ccc(F)cc2)nc2ccccc21	-20
CCOC(=O)C(=CNCC(=O)O)C(=O)OCC	-14
O=C(CCC(=O)c1cccs1)NCc1cccnc1	-9
Fc1ccc(NC(=S)Nc2cc(-c3ccccc3)[nH]n2)cc1Cl	-9
Cc1ccc(C(=O)NCCN2CCNC2=O)cc1	-13
FC(F)(F)c1cccc(N2CCC(N=CN3CCCCCC3)=N2)c1	-24
CCOc1ccc(NC(=O)NNC(=O)COc2ccc3ccccc3c2)cc1	-1
O=C(C(c1ccccc1)c1ccccc1)N1CCOCC1	-19
COc1cc(-n2c(N)c(C(=O)NCc3ccco3)c3nc4ccccc4nc32)cc(OC)c1OC	-19
Cc1ccc(NC(=O)Nc2cccnc2)cc1	-6
COc1ccc(N(C(=O)c2ccc3c(c2)OCO3)C2C=CS(=O)(=O)C2)c(OC)c1 (configuration not stated)	-22
Fc1cccc(Nc2nc(Cl)nc(Cl)n2)c1	-12
CCS(=O)(=O)N1CCC(C(=O)NCCCN2CCCC2)CC1	-7
CC(=O)c1ccc2noc(-c3ccc(C)cc3)c2c1	-32
Nn1c(COc2ccccc2)nnc1SCc1cc(=O)[nH]c2ccccc12	-13
Cc1nc2ccc(NC(=O)Cc3ccc(Br)cc3)cc2s1	-15
Cc1ccc(S(=O)(=O)c2cc3c(=O)n4ccccc4nc3n(CC3CCCO3)c2=N)cc1C (configuration not stated)	-17
CC1CCCN(c2nc(NCc3ccco3)nc(N)c2[N+](=O)[O-])C1 (configuration not stated)	-21
CCCCC(CC)Cn1c(O)c(/C=C2\C=NN=C2c2ccccc2)sc1=S (configuration not stated)	2
COCCNC(=O)c1ccc2c(c1)nc(C)n2-c1cc(OC)c(OC)c(OC)c1	-8
N#Cc1cccc(NC(=O)COC(=O)c2ccccc2C(=O)c2ccc(Cl)c([N+](=O)[O-])c2)c1	16
O=C(Nc1ccc2ccccc2c1)c1cc(F)c(F)cc1Cl	-20
COC(=O)c1ccc(NC(=O)Nc2ccc3c(c2)nc(C)n3C)cc1	-13
Cc1cc(C(=O)CN2C(=O)NC3(CCCCC3)C2=O)c(C)n1C	-6
C1CN=C(NC23CC4CC(CC(C4)C2)C3)C1	-9
CCOC(=O)C1=C(C)NC(C)=C(C(=O)OCC)C1c1cccc(C)n1	-32
COc1ccc(CN2CNc3nc4ccccc4n3C2)cc1	-40
Cc1nnc(-c2cnn(-c3ccccc3)c2N)n1Cc1ccncc1	-16
Cc1[nH]c2ccc(C(=O)NC3CCC(C)CC3)cc2c1C (configuration not stated)	-34
Cc1nc2ccccc2n1C1CC(=O)N(N(C)C)C1=O (configuration not stated)	-7
COC(=O)CCC(=O)OC1(C)C(=O)C=C2C=C(C3CC3)N(CCc3ccccn3)C=C2C1=O (configuration not stated)	3
COc1cccc(CN2CCN(c3nc4nonc4nc3N3CCCCC3)CC2=O)c1	-24
Cc1cc(S(=O)(=O)N2CCCC2)ccc1OCC(=O)NCc1ccco1	-21
Cn1c(N)c(C(=O)COC(=O)C2CCC(C(C)(C)C)CC2)c(=O)n(C)c1=O (configuration not stated)	-4
Cn1c(SCC(=O)N2CCOCC2)nnc1-c1ccccc1	-21
CC(=O)NC(CC(=O)NC(C)c1ccc(Cl)cc1Cl)c1ccccc1 (configuration not stated)	-14
COc1ccccc1Nc1ncnc2ccccc12	-22
O=C(O)c1cccnc1SC1CC(=O)N(c2ccc(OC(F)F)cc2)C1=O (configuration not stated)	-6
O=C(NCc1ccco1)C1CCCN(S(=O)(=O)c2ccccc2)C1 (configuration not stated)	-18
CC(/C=C1\SC(=S)N(NC(=O)c2cccc(O)c2)C1=O)=C\c1ccccc1	-22
Nc1c(C(=O)Nc2ccc3c(c2)OCCO3)nnn1Cc1ccc(F)cc1	6
CC(C)c1cc2cc3ccc(=O)oc3cc2o1	-29
O=C(NC1CCCCCC1)c1ccc(CS(=O)Cc2cccc(Cl)c2)o1 (configuration not stated)	-24
Cc1cc(OCC(=O)Nc2cc(-c3nn4c(C)nnc4s3)ccc2C)ccc1Cl	-29
CC(C)(C)n1ncc2c(=O)n(Cc3c(F)cccc3Cl)cnc21	-23
CSc1nnc(CCNS(=O)(=O)c2ccccc2Br)n1C	1
COc1ccc(-c2noc(CN3CCN(c4ccccc4)CC3)n2)cc1	-10
The results go on:
SMILES	OX1R antagonist
COc1ccc(Oc2ccc(N/C=C3/CCCC3=O)cc2)cc1	-18
CCOC(=O)C1CCCN(C(=O)c2cn(CC)c(=O)c3cc(OC)c(OC)cc23)C1 (configuration not stated)	-11
COC(=O)C(O)(NC(=O)OCc1ccccc1)C(F)(F)F (configuration not stated)	-11
Cc1cc(C)c(C(N)=O)c(Nc2cccc3ccccc23)n1	-5
CCOC(=O)c1cnc(SCC(=O)OCC(=O)N(CC)C2CCS(=O)(=O)C2)nc1N (configuration not stated)	-16
CCOc1ccc(N/C(C)=C/C(=O)c2ccc(C)o2)cc1	-20
O=C(NCCCO)c1cc2c([nH]c3ccccc32)c(-c2ccc(F)cc2)n1	-30
COCCOC(=O)c1c(NC(=O)CN(C)c2ccccc2)sc(C(N)=O)c1C	-17
Cc1noc(C)c1COc1ccc2ccc(=O)oc2c1	-9
O=C(Nc1cccc(F)c1)NC1CCN(Cc2ccccc2)CC1	-6
CN(Cc1ccccc1)C(=O)c1cccc(N2C(=O)NC3CC2(C)Oc2ccccc23)c1 (configuration not stated)	-29
COc1ccc(S(=O)(=O)NC2CCCC2)cc1NC(C)=O	13
COc1ccc(CN(C(=O)CCC(=O)N2CCCCC2)c2nccs2)cc1OC	-30
CCC(=O)Nc1ccc(NC(=O)c2ccccc2)nc1	-22
CN(CCNC(=O)C1CCN(c2ncnc3c2nc2n3CCCCC2)CC1)Cc1ccccc1	-33
COc1cc(/C(C#N)=C/c2cccc3ccccc23)c([N+](=O)[O-])cc1OC	-30
COc1cccc(C(=O)OCCN2C(=O)c3ccccc3C2=O)c1OC	-18
CCSc1nnc(NC(=O)C2C3CCC(C3)C2C(=O)O)s1 (configuration not stated)	-11
Cc1ccc(Nc2nc(Cl)c(C=O)s2)cc1	-21
CN(CCc1ccccn1)C(=O)CCC1CCCN(C(=O)CN2CCCCCC2)C1 (configuration not stated)	-12

Ordered by number of heavy atoms (falling): three of the compounds above
SMILES	OX1R antagonist
CN(Cc1ccccc1)C(=O)c1cccc(N2C(=O)NC3CC2(C)Oc2ccccc23)c1 (configuration not stated)	-29
CN(CCc1ccccn1)C(=O)CCC1CCCN(C(=O)CN2CCCCCC2)C1 (configuration not stated)	-12
CCC(=O)Nc1ccc(NC(=O)c2ccccc2)nc1	-22

(next part)
SMILES	OX1R antagonist
Oc1ccc(-c2csc(Nc3cccc4ccccc34)n2)cc1O	8
CC(c1ccco1)N(C(=O)c1ccc(Cl)s1)c1ccccn1 (configuration not stated)	-13
O=C(COC(=O)CCc1nc2ccccc2s1)Nc1ccc(S(=O)(=O)N2CCOCC2)cc1	-14
CC(=O)N1CCc2cc(Br)cc(S(=O)(=O)N3CCCCC3)c21	-19
O=c1c(O)c(-c2ccc(O)cc2)oc2cc(O)cc(O)c12	1
COc1ccc(CCNC(=O)c2cnc3n(c2=O)CCS3)cc1OC	-15
CCOc1ccc(OCc2ccc(C(=O)O)o2)cc1	-3
COc1cccc(Cn2cc(-c3cccc(C(F)(F)F)c3)nn2)c1	-36
COc1ccc(CNC(=O)c2ccc(N3CCC4(CC3)CC(c3ccc(Cl)cc3)=NO4)c([N+](=O)[O-])c2)cc1	0
NS(=O)(=O)c1ccc(CCNC(=O)CN2CCN(Cc3cccc4ccccc34)CC2)cc1	-30
CCCn1c(=O)c2ccccc2n2c(SC(C)C(N)=O)nnc12 (configuration not stated)	-22
CC1(C)CC(=O)c2cnc3c(C#N)cnn3c2C1	-13
CCOC(=O)c1c(O)cc(C)cc1Nc1ccccc1	-19
O=C(CCN1C(=O)c2cccc3cccc(c23)C1=O)N1CCN(Cc2ccc3c(c2)OCO3)CC1	-10
COc1ccc2cc(-c3csc(-c4cccnc4)n3)ccc2c1	-22
CCOc1ccc2c(C)c(C(=O)O)oc2c1OCC	-4
O=C1c2ccccc2C(=O)N1c1ncc(Cc2ccc(Cl)cc2)s1	0
O=C(Nc1cc(Cl)c(O)c(Cl)c1)C1CCCO1 (configuration not stated)	-3
COc1ccc2ccccc2c1/C=N\n1c(C)cc(C)c(C(N)=O)c1=O	-10
COC(=O)c1ccccc1NC(=O)CN(C)S(=O)(=O)c1cc(C)ccc1OC	-36
COc1ccc(-c2cc(C(F)(F)F)n3nc(C(=O)Nc4c(C)n(C)n(-c5ccccc5)c4=O)c(Cl)c3n2)cc1	-12
Cc1cc(C)nc(NS(=O)(=O)c2ccc(NC(=O)CN3C(=O)S/C(=C\c4ccccc4)C3=O)cc2)n1	4
O=C(N/N=C\c1ccccc1)c1cccc(C(=O)N/N=C\c2ccccc2)n1	-51
Cc1nn(-c2ccccc2)c(C)c1NC(=O)COC(=O)C1CC(=O)N(CCc2ccccc2)C1 (configuration not stated)	-17
NNC(=O)c1nn(-c2ccccc2)cc1O	-11
CCN(CC)CCCN1C(=O)c2oc3ccccc3c(=O)c2C1c1cccnc1 (configuration not stated)	-18
CN1C(=O)c2ccccc2C(C(=O)NCCCN2CCCC2)C1c1c[nH]c2ccccc12 (configuration not stated)	-16
Cc1cc(C)n2c(SCc3cccs3)nnc2n1	-4
NS(=O)(=O)c1cc2c(cc1Cl)NC(CC1CCCC1)NS2(=O)=O (configuration not stated)	-2
O=C(C1COc2ccccc2O1)N1CCN(Cc2ccccc2)CC1 (configuration not stated)	-21
Cc1cc(C(=O)CSc2nnc(N)s2)c(C)n1C1CC1	-4
S=C(Nc1ccc2c(c1)OCO2)N1CCCC1	-2
C[C@@H]1C=C(C(=O)N2CCOCC2)O[C@H](OCc2ccc(CO)cc2)C1	-7
Cc1cccc(OCCCC(=O)Nc2ccc(S(=O)(=O)Nc3ncccn3)cc2)c1C	-8
CC(C)c1nnc(NC(=O)Cc2ccccc2[N+](=O)[O-])s1	12
Cc1ccc(SCC(=O)NCCC2=CCCCC2)cc1	-2
CCCCNC(=S)N(C)/N=C/c1ccccc1C(=O)O	-22
O=C(NCc1ccco1)C1CCN(S(=O)(=O)Cc2ccccc2)CC1	-10
CC(C)c1nc(SCC(=O)N2CCCc3ccccc32)c2c(=O)n(C)c(=O)n(C)c2n1	-20
Cc1ccc(NC(=O)c2cc(=O)c3ccccc3o2)cc1S(=O)(=O)N1CCOCC1	-17
CCN(CC)CCCNC(=S)N(Cc1cccnc1)Cc1cc2cccc(C)c2[nH]c1=O	-7
Cc1ccc2c(c1)nnn2C1CCN(CC(=O)c2ccc(Cl)cc2)CC1	-33
Cc1ccc(S(=O)(=O)N2CCN(CC(=O)NC3CCCc4ccccc43)CC2)cc1C (configuration not stated)	-30
Cc1oc(-c2ccccc2Cl)nc1CS(=O)CC(=O)NCc1ccc(Cl)cc1 (configuration not stated)	-20
Cc1ccc2c(c1)c1c(n2CC(O)CN2CCOCC2)CCCC1 (configuration not stated)	-32
O=C(CCCCCN1C(=O)CCC1=O)Nc1ccc(Br)cc1F	-22
COc1ccc(S(=O)(=O)NC(C)C(=O)NCc2ccccn2)cc1Cl (configuration not stated)	-17
C=CCn1cc(/C=C2\SC(N3CCOCC3)=NC2=O)c2ccccc21	-26
Cc1cc(C)nc(N2CCC(C(=O)NC3CCCCCC3)CC2)n1	-12
O=C(/C=C\c1cn(-c2ccccc2)nc1-c1ccc2c(c1)OCCO2)N1CCOCC1	-30
Next results.
SMILES	OX1R antagonist
Cc1cc(NC(=O)Cc2c(F)cccc2Cl)no1	0
COc1ccc(Br)cc1CN(C)CC(=O)Nc1ccccc1Cl	-28
CCOCCCNC(=S)N1CCCN(c2nc3cc(C)ccc3cc2C#N)CC1	-5
CCCOc1ccc(N2CC(C(=O)Nc3ccccc3C(=O)NCc3ccco3)CC2=O)cc1 (configuration not stated)	-21
CCOC(=O)N1CCN(c2c(N3CCN(c4ccccn4)CC3)c(=O)c2=O)CC1	-25
CSc1nc2c(ccc3ccccc32)o1	-9
O=C(Nc1cnc2ccccc2c1)N1CCCCC1	-5
Cc1cc(N2CCCC2=O)ccc1S(=O)(=O)NCCOc1ccccc1	2
Cn1c(NCc2ccco2)nc2c1c(=O)n(Cc1ccc(Cl)cc1Cl)c(=O)n2C	-29
COC(c1ccccc1)c1nnc(CCC(=O)N2CCN(Cc3cccs3)CC2)o1 (configuration not stated)	-14

As a short view, 5 of the compounds above.
SMILES	OX1R antagonist
CSc1nc2c(ccc3ccccc32)o1	-9
O=C(Nc1cnc2ccccc2c1)N1CCCCC1	-5
Cc1cc(N2CCCC2=O)ccc1S(=O)(=O)NCCOc1ccccc1	2
Cn1c(NCc2ccco2)nc2c1c(=O)n(Cc1ccc(Cl)cc1Cl)c(=O)n2C	-29
COC(c1ccccc1)c1nnc(CCC(=O)N2CCN(Cc3cccs3)CC2)o1 (configuration not stated)	-14

(continued)
SMILES	OX1R antagonist
COC(=O)c1ccccc1NC(=O)COC(=O)CSc1nnc(N)s1	-13
Cn1c(C(=O)OC(C(=O)NC2CCCCC2)c2ccncc2)cc2sccc21 (configuration not stated)	-17
CCn1nnc2sc3c(c2c1=O)CCC(C)C3 (configuration not stated)	-28
Cc1cccc(C)c1NC(=O)CNC(=O)Cc1c[nH]c2ccccc12	-30

Exported as a markdown table: entries from further up
| SMILES | OX1R antagonist |
| --- | --- |
| CCn1nnc2sc3c(c2c1=O)CCC(C)C3 (configuration not stated) | -28 |
| Cc1cccc(C)c1NC(=O)CNC(=O)Cc1c[nH]c2ccccc12 | -30 |
